PV pol inh – inhibitors of poliovirus RNA polymerase binding and polymerization; P03300; poliovirus polymerase elongation, fluorescence polarization; active compounds read low; % elongation, % (compound at 16.7 µg/mL); hit rate 0.66% among 150,000; AID 588519; in the data active means % elongation below about 90%; further: some results filed as inactive read as strong as hits
Target sequence (P03300 1749-2209 limits assumed): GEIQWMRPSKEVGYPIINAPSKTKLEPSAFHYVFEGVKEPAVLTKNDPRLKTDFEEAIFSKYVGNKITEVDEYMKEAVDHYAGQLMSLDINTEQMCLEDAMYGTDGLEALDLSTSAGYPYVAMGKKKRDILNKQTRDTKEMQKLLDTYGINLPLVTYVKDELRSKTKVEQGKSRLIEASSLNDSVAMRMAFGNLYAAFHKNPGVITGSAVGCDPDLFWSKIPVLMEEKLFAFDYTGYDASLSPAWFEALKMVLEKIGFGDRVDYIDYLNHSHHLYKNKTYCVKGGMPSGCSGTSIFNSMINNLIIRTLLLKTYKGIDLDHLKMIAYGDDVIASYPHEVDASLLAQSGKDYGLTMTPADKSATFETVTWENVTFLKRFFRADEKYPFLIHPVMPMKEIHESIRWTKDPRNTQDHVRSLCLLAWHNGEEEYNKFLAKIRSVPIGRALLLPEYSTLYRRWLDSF
PV pol inh intensity – second read-out of PV pol inh, no call of its own (marks repeat the call); % elongation; measured here: total intensity read-out; formula for this scale not given here;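 total fluorescence in place of polarization; lower means less elongation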
* = called active by the depositor. An excerpt (hit frequency here may not be typical).

Structure	PV pol inh	PV pol inh intensity
O=C(c1cc2c(s1)-c1ccccc1OC2)N1CCN(c2ccccc2)CC1	104	109
Cc1ccc(OCC(=O)Nc2cccc(C(=O)OCc3cc(=O)n4cc(C)sc4n3)c2)cc1	113	119
COc1ccc(Cn2c(=O)c3cccnc3n(CC(=O)Nc3ccc(C)c(F)c3)c2=O)cc1	106	104
CCCNC(=O)c1ccc2c(c1)N(Cc1cccc(C)c1)C(=O)c1ccccc1S2	102	107
COc1cc(CNCCSc2nnnn2C)cc(Cl)c1OCc1ccccc1	101	104
Cc1[nH]c(=O)[nH]c(=O)c1S(=O)(=O)N1CCN(c2ccccc2Cl)CC1	101	112
O=C(CN1C(=O)COc2ccc(S(=O)(=O)NC3CCCC3)cc21)Nc1ccc(F)c(Cl)c1	111	107
Cc1ccccc1OCCSc1nc2ccc(NC(=O)c3cccs3)cc2s1	105	110
Cc1cccc(Cn2nnc3c(=O)[nH]c(C4CCN(C(=O)c5ccccc5F)CC4)nc32)c1	104	102
CCOc1ccccc1NC(=O)C(CC)Sc1nc2ncccc2[nH]1 (stereo not given)	111	117
COc1cc(OC)c(NC(=O)Cn2c(=O)nc(-c3ccccc3)c3ccccc32)cc1Cl	108	114
Cc1cccc(NC(=O)c2c(Br)sc3c2CCCC3)c1	104	112
Cc1ccc(C)c(N2CCN(C(=O)c3ccc4c(c3)N(Cc3ccc(F)cc3)C(=O)c3ccccc3S4=O)CC2)c1 (stereo not given)	108	110
CCOc1ccc(C(=O)Nc2ccccc2C(=O)OCc2cc(=O)n3nc(C4CC4)sc3n2)cc1	107	108
CC(=O)N1CCc2c(sc3c2c(=O)n(-c2ccc(C)cc2)c(=O)n3CC(=O)Nc2ccccc2)C1	107	111
COc1ccc(Cl)cc1C(=O)Nc1ccc(-c2nnc3n2CCCCC3)cc1	99	103
COC(=O)c1ccc(OCC2c3cc(OC)c(OC)cc3CCN2C(=O)c2ccc(OC)cc2)cc1 (stereo not given)	108	113
CCCCCOc1ccc(Cn2c(=O)oc3ccc(C)cc32)cc1OC	102	105
COc1cc(OC)c(OC)cc1/C=C/c1nc2cc3ccccc3cc2c(=O)n1-c1ccc(Cl)cc1	107	113
COc1cc2c(C(=O)N3CCN(c4ccc(C)cc4)C(C)C3)cn(CC(C)C)c(=O)c2cc1OC (stereo not given)	108	110
CCOc1cc2c(cc1OCC)C(c1c(F)cccc1Cl)CC(=O)N2 (stereo not given)	103	105
COc1cccc(-c2nn(C)c3sc(C(=O)N4CCN(c5cccc(C(F)(F)F)c5)CC4)cc23)c1	106	111
CCOC(=O)c1c(NC(=O)C(C)Sc2cn(CCNC(=O)c3ccc(OC)c(OC)c3)c3ccccc23)sc2c1CCC2 (stereo not given)	106	106
Cc1cccc(NC(=O)CSc2ccc(-c3ccccn3)nn2)c1	113	111
CCN1CCN(C(=O)c2ccc3c(c2)N(Cc2ccccc2)C(=O)c2ccccc2S3(=O)=O)CC1	106	108
COc1ccccc1-c1cc2nc(C)c(CCC(=O)Nc3cc(C)ccc3C)c(C)n2n1	108	106
COc1ccc(NC(=O)CSc2nccn2Cc2ccc3c(c2)OCO3)cc1	105	105
COc1cccc(-n2c(SCc3cccc(C)c3)nc3c([nH]c4ccccc43)c2=O)c1	111	117
COc1ccc(S(=O)(=O)Nc2c(C)nc3nc(C)[nH]n3c2=O)cc1	100	101
COc1cc(NC(=O)C2Cc3ccccc3N2C(=O)c2ccccc2)cc(OC)c1 (stereo not given)	101	98
CC(C)OCCCNC(=O)CN1C(=O)CSc2ccc(S(=O)(=O)N3CCOCC3)cc21	113	115
Cc1c(Cl)cccc1Nc1nn2c(=O)c3ccc(C(=O)N(C)Cc4ccccc4)cc3nc2s1	106	104
Cc1ccc2c(c1)N(CC(=O)NCCc1ccc(Cl)cc1)C(=O)c1cccnc1O2	111	106
COc1cccc(NCc2cccn2-c2nnc(N3CCC(C)CC3)s2)c1	111	96
COc1ccc(Cn2nc3n(c2=O)-c2ccccc2OC3)cc1	104	104
CCOCCc1nn2c(=O)cc(COC(=O)c3ccccc3OC)nc2s1	110	114
COc1ccc(NC(=O)Cn2c(=O)n(Cc3ccccc3Cl)c(=O)c3cc(OC)c(OC)cc32)cc1OC	109	108
COc1ccccc1CNC(=O)CSc1ccc(-c2sc(-c3ccccc3)nc2C)nn1	102	110
CCOc1ccc(NC(=O)Cn2c(=O)n(CCc3ccccc3)c(=O)c3c4c(sc32)CCCC4)cc1	106	109
CCCCN(C)c1nc2c(S(=O)(=O)c3ccc(CC)cc3)nnn2c2ccc(Cl)cc12	103	108
CCOc1ccc(CNC(=O)C2CCN(C(=O)N3CC(CC)Oc4ccccc43)CC2)cc1 (stereo not given)	109	110
CC1CCN(S(=O)(=O)c2ccc3c(c2)N(CC(=O)NCCN(C)C)C(=O)CS3)CC1	103	106
Cc1cc2nn(-c3ccccc3)nc2cc1NC(=O)Cc1ccc(Cl)cc1	109	109
COc1cc(C2c3c(oc4ccccc4c3=O)C(=O)N2c2nnc(C(C)C)s2)cc(OC)c1OC (stereo not given)	108	113
CCOC(=O)c1c(S(=O)(=O)NCC(=O)N2CCN(c3ccccc3OC)CC2)c(C)n(C)c1C	111	118
O=C1CSC2(C(=O)N(Cc3ccccc3)c3ccccc32)N1c1cccc(F)c1 (stereo not given)	102	107
Fc1ccc(-c2nn(-c3ccccc3Cl)c3c2cnc2ccccc23)cc1	114	106
COC(=O)c1sccc1S(=O)(=O)N(CC(=O)Nc1cc(C)cc(C)c1)c1ccc(Cl)cc1	104	108
Cc1nnc(SCC(=O)NCc2ccc(N(C)C)cc2)c2nn(-c3ccccc3)c(C)c12	102	108
CC(C)c1ccc(Nc2cc(C(=O)NCc3cccs3)c3ccccc3n2)cc1	100	105
COc1cc(NC(=O)Cn2c(=O)n(CC3CCCO3)c(=O)c3ccccc32)cc(OC)c1 (stereo not given)	107	106
Cc1cccc(NS(=O)(=O)c2ccc3c(c2)CC(C)N3C(=O)C2CCC2)c1C (stereo not given)	107	108
CCN(Cc1ccccc1)Cc1c(O)ccc2c(=O)c(-c3ccccc3OC)c(C(F)(F)F)oc12	100	103
COc1ccc(-c2cc(-c3ccccc3)nc3c2COc2ccc(Cl)cc2-3)cc1	105	111
Cc1ccc(COc2cccc3cc(-c4noc(-c5ccc(C)cc5)n4)c(=O)oc23)cc1	108	111
CN(Cc1ccccc1)C(=O)c1cc2c(s1)-c1ccc(Cl)cc1SC2	110	115
COc1cccc(NC(=O)C2CCCN(S(=O)(=O)c3c(C)nn(C)c3C)C2)c1 (stereo not given)	104	103
CCC(=O)OC1=C(C(C)=O)N(Cc2ccccc2)S(=O)(=O)c2ccccc21	114	117
COc1ccc(CNC(=O)c2oc3c(c2C)-c2nn(Cc4ccc(Cl)cc4)cc2CC3)cc1	105	105
Cc1ccc(C)c(NC(=O)CSc2nccn2-c2cccc(C)c2C)c1	102	105

The listing continues.
Structure	PV pol inh	PV pol inh intensity
Cc1ccc2nc(NC(=O)c3ccc(S(=O)(=O)N4CCCc5ccccc54)cc3)sc2c1	111	103
CCC(C(=O)Nc1cc(-c2cn3cccnc3n2)ccc1C)c1ccccc1 (stereo not given)	110	115
COc1cccc(-c2ccc3c(N)c(C(=O)c4ccc(F)cc4)sc3n2)c1	140	218
CCN(CC)CCOC(=O)c1ccc(NC(=O)Cn2ncc3c([nH]c4ccc(C)cc43)c2=O)cc1	109	107
CN(C)c1cccc(C(=O)Nc2nc3ccc(S(=O)(=O)N4CCCC4)cc3s2)c1	111	106
CCOC(=O)c1cnc2c(ccc3ccccc32)c1Nc1ccc(Cl)cc1	105	107
CCOC(=O)N1CCN(Cc2nc3cc(NC(=O)CC(C)C)ccc3n2C(C)C)CC1	103	108
COc1ccc(NC(=O)C2CCN(c3nc4ccccc4nc3C(F)(F)F)CC2)cc1	117	112
CCOC(=O)c1ccc(NC(=O)CC(=O)Nc2ccc3nc4n(c(=O)c3c2)CCCCC4)cc1	109	108
OCCN1CCN(C(c2ccccc2Cl)c2sc3nc(-c4ccco4)nn3c2O)CC1 (stereo not given)	103	105
CC(=O)Nc1ccc(NC(=O)CCc2nc3cccnc3n2Cc2cccs2)cc1	105	113
CCOc1ccc(NC(=O)N2CC3CCCN3c3ccccc32)cc1 (stereo not given)	107	115

Among those listed so far, these contain a furan ring, fused or not.
Structure	PV pol inh	PV pol inh intensity
COc1ccc(CNC(=O)c2oc3c(c2C)-c2nn(Cc4ccc(Cl)cc4)cc2CC3)cc1	105	105
OCCN1CCN(C(c2ccccc2Cl)c2sc3nc(-c4ccco4)nn3c2O)CC1 (stereo not given)	103	105

(further entries)
Structure	PV pol inh	PV pol inh intensity
Cc1ccc(CNC(=O)Cn2cccc2C(=O)c2ccccc2C)cc1	108	112
CSc1ccc(CCNC(=O)c2sc3ncccc3c2-n2cccc2)cc1	104	112
COc1cccc(Nc2nc3ccccc3c3nncn23)c1	106	106
COC(=O)CN1C(=O)C(C)(C)c2cc(S(=O)(=O)Nc3ccc(C(C)C)cc3)ccc21	108	108
Cc1ccc(NC(=O)CN2C(=O)c3ccccc3Sc3ncccc32)c(C)c1	109	113
CCOC(=O)c1ccc(NC(=O)C2Cc3ccccc3CN2S(=O)(=O)c2ccc(Cl)cc2)cc1 (stereo not given)	113	103
CCOC(=O)c1c(NC(=O)COc2cccc(C)c2C)sc2c1CCCCC2	99	100
Cn1cc(C(=O)NCc2ccc(Cl)cc2)c(=O)c2cc(S(=O)(=O)N3CCCCCC3)ccc21	105	111
CC(C)c1ccc(Nc2ncnc3c2c(-c2ccccc2)cn3-c2ccccc2)cc1	109	101
CC(=O)c1ccc(NC(=O)CCOc2ccccc2)cc1	102	99
CCc1cccc(C)c1NC(=O)c1cn2c3c(ccc(Cl)c3c1=O)OC(C)C2 (stereo not given)	104	95
Cc1ccc(-n2c3c(cc(C(=O)Nc4cccc(Cl)c4)c2=O)C(=O)CC(C)(C)C3)cc1	105	107

Profiles from above.
Listed for `Cc1ccc(-n2c3c(cc(C(=O)Nc4cccc(Cl)c4)c2=O)C(=O)CC(C)(C)C3)cc1` = PV pol inh = 105; PV pol inh intensity = 107
Listed for `CC(=O)c1ccc(NC(=O)CCOc2ccccc2)cc1` = PV pol inh = 102; PV pol inh intensity = 99
Listed for `Cc1ccc(CNC(=O)Cn2cccc2C(=O)c2ccccc2C)cc1` = PV pol inh = 108; PV pol inh intensity = 112

(further entries)
Structure	PV pol inh	PV pol inh intensity
CCN(CC)c1cc2c(cc1F)c(=O)c(S(=O)(=O)c1ccccc1)cn2Cc1ccccc1	106	105
COc1ccccc1CNC(=O)Cc1csc2nc(-c3ccc(Cl)cc3)cn12	106	113
Cc1ccc(N2CC(NC(=O)c3ccco3)CC2=O)cc1 (stereo not given)	110	108
CCc1ccc2ncc3c(-c4ccc(F)cc4)nn(CC(=O)NC4CCCCC4)c3c2c1	108	97
COC(=O)C1=C(C)NC(=O)C1(NC(=O)c1ccc(Cl)cc1)C(F)(F)F (stereo not given)	101	106
COc1ccccc1Nc1nc(C)nc(N)c1S(=O)(=O)c1ccccc1	108	112
COc1ccc(-c2nc3sc(CCNC(=O)c4cc(OC)c(OC)c(OC)c4)c(C)n3n2)cc1	110	114
Cc1ccc(NC(=O)c2oc3ccc(S(=O)(=O)N4CCC5(CC4)OCCO5)cc3c2C)c(C)c1	105	97
Cc1ccc(-c2nc3cc(NC(=O)c4cc5ccccc5o4)ccc3o2)cc1	104	108
CCC(=O)N1CCc2cc(S(=O)(=O)CCC(=O)NCc3ccc(F)cc3)ccc21	107	108
COc1cc(C(=O)Nc2ccc(-c3cc(C(F)(F)F)nn3-c3ccccc3)cc2)cc(OC)c1OC	105	109
COc1ccc(Cl)cc1NC(=O)Cn1c(=O)n(CCCC(=O)NCCc2ccc(OC)c(OC)c2)c(=O)c2ccccc21	110	111
CCc1ccc(Cn2c(CNS(=O)(=O)c3ccc(Cl)s3)nc3cccnc32)cc1	106	111
Cc1cc(=O)n2nc(N(C)CC(=O)NCc3cccc(Br)c3)sc2n1	107	109
CCc1c(C)sc(NC(=O)c2cc(-c3cccc(Cl)c3)on2)c1C#N	89	90
CCOc1ccc(NC(=O)CSc2ncc3c(n2)-c2ccccc2N(C)S3(=O)=O)cc1	109	114
Cc1cccc(C)c1OCc1nc2c3cnn(-c4ccccc4F)c3ncn2n1	75*	39*
COc1cc(OC)c(C2Nc3ccccc3-c3nnc(SCc4ccccc4)nc3O2)cc1OC (stereo not given)	108	113
CCN(C(=O)C1CCN(S(=O)(=O)c2ccc3c(c2)CCCN3C(=O)C2CCC2)CC1)c1cccc(C)c1	107	102
CCCCC12CN3CC(C)(CN(C1)C3c1c[nH]c3ccccc13)C2=O (stereo not given)	106	106
CCn1cc(C(=O)NCCc2ccc(OC)c(OC)c2)c(=O)c2cc(S(=O)(=O)N3CCc4ccccc4C3)ccc21	102	108
Cc1cc(C)cc(NC(=O)C2CCCN2S(=O)(=O)c2cccc3nsnc23)c1 (stereo not given)	106	109
COC(=O)CCCn1c(-c2ccc(C)cc2)c(C)n2c3c(=O)n(C)c(=O)n(C)c3nc12	108	109
Cc1cccc(C)c1NC(=O)Cn1c(=O)n(CC2CCC(C(=O)NCCc3ccccc3)CC2)c(=O)c2ccccc21 (stereo not given)	106	108
Cc1cc(-c2ccc(C)c(S(=O)(=O)NCCc3ccccc3)c2)on1	107	107
COc1ccc(OC)c(-c2noc(N3CCN(c4ccc(C(C)=O)cc4)CC3)n2)c1	113	99

Compound activity: PubChem BioAssay, ICCB-Longwood Screening Facility, Harvard Medical School
